VDR inhibitor – inhibitors of human vitamin D receptor; P11473; VDR-SRC2-3 peptide fluorescence polarization, 2 h; Potency, µM, without a hit: max response, negative = inhibition, hits mostly inhibitors; 400,000 tested, 0.93% active; AID 504847; active = well fitted inhibition curve with a large enough effect; inconclusive = small, poorly fitted or top-dose-only effect, or another doubt; inactive = no such curve, though single readings can be large or run the other way; note: series mostly up to about 120 µM
Target sequence (P11473 whole entry, looked up): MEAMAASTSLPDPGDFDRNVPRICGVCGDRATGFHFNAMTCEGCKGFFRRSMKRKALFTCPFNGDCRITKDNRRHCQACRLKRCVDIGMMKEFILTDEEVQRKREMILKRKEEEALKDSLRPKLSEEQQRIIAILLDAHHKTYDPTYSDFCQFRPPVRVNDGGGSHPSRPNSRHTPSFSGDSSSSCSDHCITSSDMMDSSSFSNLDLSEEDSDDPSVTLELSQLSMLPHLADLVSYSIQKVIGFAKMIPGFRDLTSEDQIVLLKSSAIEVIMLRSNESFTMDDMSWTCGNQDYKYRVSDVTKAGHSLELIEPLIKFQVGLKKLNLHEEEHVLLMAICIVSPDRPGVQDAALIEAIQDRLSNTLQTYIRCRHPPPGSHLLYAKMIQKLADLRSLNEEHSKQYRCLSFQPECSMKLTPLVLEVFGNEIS
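Reagent solutions, kept cold and dark, are dispensed first; compounds are then pinned in at 23 nl, plates briefly spun, and incubated 2 h at ambient temperature. Inhibition of VDR–SRC2-3 peptide binding is read by fluorescence polarization.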
Numbers without * were called inactive; ? = inconclusive; & = joins results of further samples. % is set by controls: 0 for no effect and ±100 for the full control effect; potency is the fitted concentration of half-maximal effect. Not all compounds are listed (hit frequency here may not be typical).

SMILES	VDR inhibitor
O=C(Cn1c(=O)c2ccccc2n(CC(=O)Nc2ccc(Cl)cc2)c1=O)NCCc1ccccc1	-123%
Cc1ccc(CCNC(=O)CN2CCN(Cc3ccc(Cl)cc3)C2=O)cc1	-4%
CCc1ccc(S(=O)(=O)Nc2c(NC3CCCCC3)c3ccccc3oc2=O)cc1	7%
CCC(=O)Nc1nnc(CCc2ccccc2)s1	-6%
CC12CCC(=O)N1C(C(=O)NCc1ccccc1F)CS2 (stereo not drawn)	6%
CC1=NN(C(N)=S)C(=O)C1N=Nc1c(Cl)cc([N+](=O)[O-])cc1Cl (stereo not drawn)	?
CSc1nc(Oc2ccccc2)c2sccc2n1	5%
CCc1ccccc1NC(=O)CN(c1cc(C(F)(F)F)ccc1Cl)S(=O)(=O)c1ccccc1	-10%
CC(Sc1nnc(COc2ccc(Cl)cc2)o1)C(=O)Nc1ccc(N2CCOCC2)cc1 (stereo not drawn)	2%
O=C(CSc1nnc(CNc2ccc(F)cc2)o1)N1c2ccccc2Sc2ccccc21	-5%
CC(=O)Nc1ccc(S(=O)(=O)NCCC(=O)OCc2ccc([N+](=O)[O-])cc2)cc1	4%
CCOC(=O)CNC(=O)CSc1ncccc1-c1nc2ccccc2[nH]1	3%
CC(OC(=O)c1ccc(S(=O)(=O)N(C)C)cc1)C(=O)Nc1ccc(Cl)cn1 (stereo not drawn)	-7%
COc1ccc(NC(=O)C2=C(C)Nc3nc(SCc4ccc(C)cc4C)nn3C2c2cccc(OC)c2OC)cc1 (stereo not drawn)	5%
Cc1cccc(C(=O)Nc2ccc3c(c2)ncn3C)c1	-13%

The final two entries of the section before open the next one:
SMILES	VDR inhibitor
COc1ccc(NC(=O)C2=C(C)Nc3nc(SCc4ccc(C)cc4C)nn3C2c2cccc(OC)c2OC)cc1 (stereo not drawn)	5%
Cc1cccc(C(=O)Nc2ccc3c(c2)ncn3C)c1	-13%
O=C(Nc1ccccc1F)c1ccc2c(c1)OCO2	12%
C=CCN1C(=O)C(CC(=O)Nc2ccccc2)SC1=Nc1c(C)n(C)n(-c2ccccc2)c1=O (stereo not drawn)	7%
COc1ccccc1-c1cc(NCc2cccs2)ncn1	1%
Cc1ccc2oc(=O)n(Cc3ccc(OC(C)C)cc3)c2c1	-7%
O=C(O)c1ccccc1C(=O)OC1CCCC2CCCC21 (stereo not drawn)	-8%
O=c1[nH]cc(F)c(=O)[nH]1	-3%&-1%&3%
CC1(C)Cc2c(sc3nc(SCC(=O)NCc4ccccc4)n(-c4ccccc4)c(=O)c23)CS1	2%
CCCn1c(=O)c2ccccc2n2c(SCc3c(C(=O)OCC)oc4ccccc34)nnc12	18%
COc1ccc(C(=O)/C=C/c2ccccc2)c(O)c1	?
O=C(CCCOc1ccccc1)Nc1cccc([N+](=O)[O-])c1	14%
CCOCCn1c(C)c(C(=O)OCC)c2cc(O)c3ccccc3c21	?
COc1ccc(OC)c(S(=O)(=O)N/N=C\c2ccc3c(c2)OCO3)c1	19%
CCOC(=O)/C(C#N)=C\N(C)C	-14%
Cc1ccc(-c2nnc(SCC(=O)N3CCCc4ccccc43)o2)cc1	-2%
O=C(CC1(O)C(=O)c2ccccc2C1=O)c1ccccc1	13%

Other entries.
SMILES	VDR inhibitor
COc1cc2c(cc1OC)C(C)N(C(=O)c1c(-c3ccccc3)noc1C)CC2 (stereo not drawn)	-9%
CC(=O)N(Cc1ccccc1)Cc1nc2sc(C)c(C)c2c(=O)[nH]1	4%
Cn1c(=O)c2c(nc(CN3CCOCC3)n2CCCc2ccccc2)n(C)c1=O	3%
COc1cc2[nH]c(=O)n(C3CCCCC3)c(=O)c2cc1OC	1%
Cc1nn2c3c(cnc2c1-c1ccccc1)C(=O)CC(c1ccccc1)C3 (stereo not drawn)	-7%
CC1=C/C(=N\OS(=O)(=O)c2ccccc2)C=CC1=O	32µM*
O=C1C2C3C=CC(C3)C2C(=O)N1Cc1cccnc1 (stereo not drawn)	-11%
O=C(O)c1cc(NN=Nc2cccc([N+](=O)[O-])c2)cc([N+](=O)[O-])c1	7%
Cc1ccc(S(=O)(=O)Oc2ccccc2/C=N/O)cc1	-25%
CCOc1ccc(NC(=O)CN(c2ccc(C)cc2)S(=O)(=O)c2cccs2)cc1	-9%
COCCN1CCN(C(=O)C2CCC(=O)N(CCc3ccccc3)C2)CC1 (stereo not drawn)	-15%
CC(C)Sc1ncc(Cl)c(C(=O)N(Cc2ccc(N(C)C)cc2)C2CCS(=O)(=O)C2)n1 (stereo not drawn)	2%
CCCOc1ccc(/C=C/C(=O)OCC(=O)N(C)c2c(N)n(Cc3ccccc3)c(=O)[nH]c2=O)cc1OCC	-16%
CCN(C(=O)CSc1nc2ccccc2o1)C1CCS(=O)(=O)C1 (stereo not drawn)	7%
COC(=O)c1ccc2nc(-c3ccc(S(C)(=O)=O)cc3)cn2c1	?

Compounds from the list above containing a thiophene ring, fused or not:
SMILES	VDR inhibitor
CSc1nc(Oc2ccccc2)c2sccc2n1	5%
COc1ccccc1-c1cc(NCc2cccs2)ncn1	1%
CC1(C)Cc2c(sc3nc(SCC(=O)NCc4ccccc4)n(-c4ccccc4)c(=O)c23)CS1	2%
CC(=O)N(Cc1ccccc1)Cc1nc2sc(C)c(C)c2c(=O)[nH]1	4%
CCOc1ccc(NC(=O)CN(c2ccc(C)cc2)S(=O)(=O)c2cccs2)cc1	-9%

Compounds from the list above with a COOH group, in the order listed:
SMILES	VDR inhibitor
O=C(O)c1ccccc1C(=O)OC1CCCC2CCCC21 (stereo not drawn)	-8%
O=C(O)c1cc(NN=Nc2cccc([N+](=O)[O-])c2)cc([N+](=O)[O-])c1	7%

Remaining list, next part
SMILES	VDR inhibitor
COC(=O)c1ccc(CNC(=O)/C=C/c2cc([N+](=O)[O-])ccc2OC(F)F)cc1	2%
CSc1ccc(-c2c(C#N)c(N)nc3c2c(C)nn3-c2ccccc2)cc1	6%
CC(=O)c1ccccc1NC(=O)CSCc1nc2sc(C)c(C)c2c(=O)[nH]1	-22%
O=C(NC1CC1)c1ccc(-c2nc3ccccc3s2)s1	-5%
[2H]c1c([2H])c([2H])c(C(=O)c2sc(N3CCCCCC3)nc2-c2ccccc2)c([2H])c1[2H]	-13%
O=C(CCC(=O)n1ncc2ccccc21)N1CCCCC1	3%
COc1cc2c(cc1Cl)/C(=C\CCN(C)C)c1ccccc1S2	-8%
COC(=O)CCC(=O)Nc1ccc(OC)cc1	5%
COc1ccc(C2(c3ccc(OC)cc3)NC(=O)NC2=O)cc1	16%
COc1ccc(/C=N/Nc2ncc(C(F)(F)F)cc2Cl)c(OC)c1OC	1%
Cc1ccc(SCc2nc(N)nc(Nc3ccccc3C)n2)c(C)c1	-7%
Cc1ccc2c(=O)cc(C(=O)N(Cc3ccccc3Cl)C3CCS(=O)(=O)C3)oc2c1 (stereo not drawn)	?
CC(=O)Oc1ccccc1C1OCCN1C(C)=O (stereo not drawn)	10%
C=C1CCN(C(CC(C)C)C(=O)NCc2ccc(Cl)c(Cl)c2)S(=O)(=O)c2ccccc21 (stereo not drawn)	-6%
COc1ccc(Nc2cc(C(=O)NCCCN(C)Cc3ccccc3)c3ccccc3n2)c(OC)c1	2%

Continuation:
SMILES	VDR inhibitor
CCOC(=O)N1CCN(C(=O)CSc2nc(=O)n3cccc(C)c3n2)CC1	13%
CC1CCC2(CC1)NC(=O)N(CC(=O)Nc1cccnc1Cl)C2=O (stereo not drawn)	-4%
CCCNC(=O)CSc1nnc(C)s1	4%
CCOc1ccccc1N1CC(C(=O)Nc2cc(S(=O)(=O)N3CCOCC3)ccc2OC(C)C)CC1=O (stereo not drawn)	6%
C=CCC1(CC=C)CCCN1C(=O)c1cc(COc2ccc(C)nc2)on1	1%
COC(=O)C1=C(N)Oc2c(oc(CO)cc2=O)C1c1ccc(F)cc1 (stereo not drawn)	-11%
CCOC(=O)C(C(=O)Nc1ccccc1)C1CCCCC1 (stereo not drawn)	-5%
CC(=O)c1cccc(-n2c(CCC(=O)O)ccc2-c2cccs2)c1	-23%
Cc1ccccc1NC(=O)c1cccc2nccnc12	0%
COc1cc(/C=C(/Sc2nnc(-c3ccc(F)cc3)o2)C(=O)O)ccc1OC(F)F	5%
Cc1ccc(S(=O)(=O)N(C)C)cc1NC(=O)COC(=O)CCCOc1ccccc1	-8%
COc1cccc(CS(=O)(=O)c2nnnn2-c2ccc(F)cc2Br)c1	1%
Cc1ccc(-c2nnn(CC(=O)N(CCN3CCOCC3)C(C(=O)NC(C)(C)C)c3ccc(C)o3)n2)cc1 (stereo not drawn)	29%
O=C(CCCn1c(=S)[nH]c2cc3c(cc2c1=O)OCO3)N1CCN(c2ccccn2)CC1	10%
COC(=O)c1cccc(S(=O)(=O)N2CCCCC2)c1	-4%

Continued.
SMILES	VDR inhibitor
COc1ccc(S(=O)(=O)N2CCCCC2)cc1NC(=O)c1cc([N+](=O)[O-])ccc1N1CCOCC1	?
COc1cccc(OC)c1C(=O)Nc1nnc(C(C)C)s1	-5%
CCOc1ccc(C(c2c(NC(=O)c3ccccc3)sc(C)c2C)N2CCN(C)CC2)cc1 (stereo not drawn)	11%
Cc1cc(O)c(NC(=S)NC(=O)c2ccc(-c3ccc(Cl)cc3)o2)cc1C	11%
CCCN1C(=O)c2ccccc2NC1c1ccc(Cl)cc1 (stereo not drawn)	-2%
Cc1cccc(C)c1NC(=S)N1CCC(N(C)CC2CCCO2)CC1 (stereo not drawn)	-2%
O=C1c2ccccc2NC(c2cccnc2)N1c1ccccc1F (stereo not drawn)	5%
OCC(O)C1OC(c2ccccc2)OC(CO)C1O (stereo not drawn)	11%
Cc1cc(=O)[nH]c2c1c(C)nn2C(C)(C)C	-8%
COc1ccc(CNC(=O)c2cnc3cc(C)ccn3c2=O)cc1	-12%&7%
Cc1ccc(N2C(=O)C3CCCN3C2=S)c(C)c1 (stereo not drawn)	2%
COc1ccc(NC(=O)c2nn(C)c(C(=O)Nc3ccc(OC)cc3)c2[N+](=O)[O-])cc1	-18%
CC1(C)CC(=O)C2=C(C1)OC(N)=C(C#N)[C@@H]2c1ccccc1[N+](=O)[O-]	-8%
Cc1ccc2nc(-c3ccc(N4C(=NC(=O)CCC(=O)O)SC5CS(=O)(=O)CC54)cc3)sc2c1 (stereo not drawn)	-5%
Cc1onc(-c2ccccc2Cl)c1C(=O)NC(=S)Nc1ccccc1F	-12%

Following part.
SMILES	VDR inhibitor
CCCCOc1ccc(CSC(=N)N)cc1Cl	-17%
COCCN(C(=O)COC(=O)c1c(-c2ccccc2)noc1C)c1c(N)n(Cc2ccccc2)c(=O)[nH]c1=O	3%
COc1ccc2cc(C(c3nnnn3CCc3ccccc3)N3CCCC(C)C3)c(=O)[nH]c2c1 (stereo not drawn)	-5%
CCN1CCS/C1=C/C=C/C1=[N+](CC)CCS1	-1%
CC(C)(C)NC(=O)CC1C[C@H](C(=O)N2CCOCC2)[C@@]2(C)c3[nH]c4ccccc4c3CCN2C1=O (stereo partly drawn)	-17%
O=C1c2ccccc2C(=O)N1OCc1ccccc1[N+](=O)[O-]	-5%
CCOc1ccc(NC(=O)CSc2nc3ccccc3nc2N2CC(C)OC(C)C2)cc1 (stereo not drawn)	2%
O=C(Cc1cccs1)Nc1cccc(-c2nc3ccccc3o2)c1	-6%
N#Cc1nc(/C=C/c2ccc(F)cc2)oc1NCc1ccc(F)cc1	-10%
N#Cc1c(SCC(=O)Nc2nccs2)sc2c(O)cc(=O)[nH]c12	25%
O=c1c2ccccc2nc2n1CC/C2=C\N1CCN(c2ccc([N+](=O)[O-])cc2)CC1	-14%
CCOC(=O)C(=O)NCC(c1cccs1)S(=O)(=O)c1ccc(C)cc1 (stereo not drawn)	3%
C[C@H](CO)N1C[C@H](C)[C@@H](CN(C)S(=O)(=O)c2cccs2)Oc2ccc(NS(=O)(=O)c3ccccc3)cc2CC1=O	18%
O=C(c1ccco1)N1CCN(c2nc3c(F)cc(F)cc3s2)CC1	-4%
CC(C)(C)n1nc2c(c1NC(=O)c1ccc(Cl)c([N+](=O)[O-])c1)CS(=O)(=O)C2	-1%

Following part.
SMILES	VDR inhibitor
CC(C)(C)S(=O)(=O)N1C[C@@H]2CC/C=C\C/C=C\2[C@H]1CCO	-14%
O=C(O)CCC(=O)Nc1nc2nccc(-c3ccccc3)n2n1	2%
Cn1c(/C(C#N)=C(\O)c2ccc([N+](=O)[O-])cc2)nc2ccccc21	?
O=C(NNc1ncnc2c1cnn2-c1ccc(F)cc1)c1cccs1	8%
COC(=O)C1=C(C)N(CC2CC2)C(=O)N[C@H]1c1ccc(Br)cc1	-2%&1%
O=C(CCN1C(=O)/C(=C/c2cccs2)SC1=S)NC1=NCCS1	-12%
Cc1[nH]n(-c2ccccc2)c(=O)c1N=Nc1cccc(S(=O)(=O)N2CCOCC2)c1	8%
CC(C)Oc1ccc(C(=O)N(Cc2ccco2)c2ccccn2)cc1	4%
O=C(Cn1nc(C(=O)O)c2ccccc2c1=O)Nc1ccccc1C(F)(F)F	-18%
CCc1ccc(C(=O)Nc2ccc(OC)c(S(=O)(=O)N3CCOCC3)c2)cc1	-15%
Cc1ccc(S(=O)(=O)NCC(=O)N(CC(=O)NCC2CCCO2)Cc2ccccc2)cc1 (stereo not drawn)	10%
O=C1SCC(c2ccc(Cl)cc2Cl)=NN1Cc1nnc(-c2ccccc2)o1	2%
COC(=O)c1sc2ncccc2c1-n1c(C)ccc1C	19%
